KCNQ2 enhance – potentiators of rat KCNQ2 potassium channel; actives 0.54% (n = 310,000); AID 2239, 2010; B-score at 10 µM; CHO-K1 KCNQ2, FluxOR thallium flux fluorescence; stronger effect = higher value; Potassium voltage-gated channel subfamily KQT member 2 (Rattus norvegicus), O88943;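 active = fluorescence ratio B-score at least 3 SD of library B-scores, with initial fluorescence B-score within 3 SD, cut at about 5.3 in these data; same plate scores as AID 2156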;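 note: B-score of peak minus minimum over baseline fluorescence ratio after K+ and Tl+ stimulus; positive B-score means potentiation of KCNQ2 with more thallium influx and brighter signal; only the inactives scoring about 0 or higher are listed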
Target sequence (O88943 whole entry, looked up): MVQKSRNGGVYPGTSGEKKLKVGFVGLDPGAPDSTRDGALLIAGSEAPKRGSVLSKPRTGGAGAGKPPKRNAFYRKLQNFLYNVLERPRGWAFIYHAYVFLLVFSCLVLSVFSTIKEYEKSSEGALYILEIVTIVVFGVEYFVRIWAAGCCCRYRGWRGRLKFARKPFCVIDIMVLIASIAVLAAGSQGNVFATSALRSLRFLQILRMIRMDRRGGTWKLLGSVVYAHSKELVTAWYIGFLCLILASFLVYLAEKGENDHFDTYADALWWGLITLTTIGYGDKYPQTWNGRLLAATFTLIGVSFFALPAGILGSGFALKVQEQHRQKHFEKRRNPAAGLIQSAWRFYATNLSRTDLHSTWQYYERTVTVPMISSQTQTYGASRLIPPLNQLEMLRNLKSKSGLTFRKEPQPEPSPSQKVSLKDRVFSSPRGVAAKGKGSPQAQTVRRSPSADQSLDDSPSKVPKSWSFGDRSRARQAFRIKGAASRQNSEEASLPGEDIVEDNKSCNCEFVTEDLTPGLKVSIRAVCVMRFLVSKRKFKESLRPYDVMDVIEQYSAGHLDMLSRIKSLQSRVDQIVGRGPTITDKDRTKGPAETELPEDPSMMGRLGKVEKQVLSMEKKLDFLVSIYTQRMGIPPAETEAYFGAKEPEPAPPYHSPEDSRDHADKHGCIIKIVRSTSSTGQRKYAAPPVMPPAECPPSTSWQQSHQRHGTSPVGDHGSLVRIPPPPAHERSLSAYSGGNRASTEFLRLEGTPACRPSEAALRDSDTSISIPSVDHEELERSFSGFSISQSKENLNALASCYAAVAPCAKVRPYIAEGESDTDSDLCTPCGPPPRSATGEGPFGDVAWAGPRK
KCNQ2 enhance baseline – further read-out of KCNQ2 enhance, marked with its call; B-score; compound at 10 µM; measured here: initial fluorescence intensity artifact check;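 brightness before thallium and not channel activity; 0 = typical well and far values either way flag optical interference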
The depositor's hits bear a star. These rows are one share of the data, so the mix of outcomes need not match the whole.

The line under a structure holds: KCNQ2 enhance, KCNQ2 enhance baseline
- COc1ccc(-n2cnnc2SCc2ncc(-c3ccccc3)o2)cc1
→ 0.91, -2.19
- CCOc1ccc(Cc2nnc(N)s2)cc1OCC
→ 0.58, -0.99
- CCc1noc(C)c1C(=O)Nc1nc(-c2ccc(NC(C)=O)cc2)cs1
→ 0.38, -0.43
- COc1ccc(-c2nn(-c3ccccc3)cc2/C=N/Nc2ccc(Cl)c(C(=O)O)c2)cc1OC
→ 1.62, -0.49
- COc1ccc(-n2c(Cc3cc(=O)[nH]c(=O)[nH]3)nnc2SCC(=O)Nc2cc(C(F)(F)F)ccc2Cl)cc1
→ 0.07, 0.45
- Cc1ccc(S(=O)(=O)N2CCOCC2)cc1C(=O)Nc1ccccc1F
→ 2.26, -0.31
- O=C(OCCN1C(=O)c2ccccc2C1=O)Oc1ccccc1
→ 0.77, -1
- Cc1[nH]n(-c2ccc(Br)cc2)c(=O)c1C=Nc1ccc(S(=O)(=O)Nc2nccs2)cc1
→ 0.14, 2.14
- Cc1cc2nnc(SCC(=O)N3CCCCCC3)n2c(N)n1
→ 1.25, -0.72
- CSc1nc2ccc(NS(=O)(=O)c3ccc(Br)s3)cc2s1
→ 0.61, -1.09
- Cc1ccc(/C=N/NC(=O)C(C)Oc2cccc3ccccc23)o1 (centres undefined)
→ 0.16, -0.01
- COC(=O)c1ccc(CN2CCc3ccc(NC(=O)c4ccncc4)cc3C2)cc1
→ 3.05, 1.51
- CCC(c1nnc(SCC(=O)N(C)c2ccccc2)n1Cc1ccccc1)N(C)C (centres undefined)
→ 1.7, 1.82
- COc1ccc(CN(C#N)c2nc(SC)nc(N(C)C)n2)cc1
→ 0.05, 1.23
- CCOC(=O)C1C(c2ccc(O)c(OCC)c2)NC(=S)NC1(O)C(F)(F)F (centres undefined)
→ 1.15, 0.68

New compounds follow
The line under a structure holds: KCNQ2 enhance, KCNQ2 enhance baseline
- Cc1cc(C)n(CC(O)Cn2c3ccccc3c3ccccc32)n1 (centres undefined)
→ 4.85, 0.31
- Cc1cc2oc3ccc(NCCCN4CCOCC4)cc3c(=O)c2cc1C
→ 0.16, -0.28
- CCNc1nc(NC(C)(C)C)nc(N(C#N)CC)n1
→ 1.2, -3.95
- CCn1cc(C(=O)O)c(=O)c2cc(F)c(N3CCN(C(=S)NC(=O)c4ccccc4Br)CC3)cc21
→ 0.62, -0.05
- COc1ccc(CC(CC(=O)O)C(=O)Nc2ccccc2)cc1 (centres undefined)
→ 0.89, 1.75
- CCCCc1nc(SCCOC)c2c(=O)n(C)c(=O)n(C)c2n1
→ 2.04, 1.22
- O=S(=O)(c1ccc2oc3ccccc3c2c1)N1CCCC1
→ 0.68, 2.42
- C=CCSc1nc2ccsc2c(=O)n1-c1ccccc1
→ 0.23, -0.01
- CCOC(=O)c1ccc(Nc2nc(=O)c3cccnc3s2)cc1
→ 0.39, -0.15
- CC(Oc1ccc(-c2ccccc2)c(F)c1)c1ccn(S(=O)(=O)c2ccc(F)cc2)n1 (centres undefined)
→ 1.4, -1.11
- Cc1c(C)c2ccc(O[C@@H]3O[C@H](CO)[C@H](O)[C@H](O)[C@H]3O)cc2oc1=O
→ 0.07, -0.01
- Cc1cc(C)n2[nH]c(=O)c(N=Nc3cccc(Cl)c3)c2n1
→ 0.23, -2.8
- COC(=O)c1c(C(=O)OC)c(-c2cccc(Cl)c2)n2c1CS(=O)(=O)C2
→ 0.22, 0.31
- COc1ccc(N(C(=O)c2ccco2)C(C(=O)NC2CCCC2)c2ccncc2)cc1 (centres undefined)
→ 0.59, -0.01
- COc1ccc(/C=N/n2cnnc2)cc1COc1ccccn1
→ 0.33, -1.16

Reprinted at random: 7 records from the list, in no set order.
The line under a structure holds: KCNQ2 enhance, KCNQ2 enhance baseline
- COc1ccc(/C=N/n2cnnc2)cc1COc1ccccn1
→ 0.33, -1.16
- COC(=O)c1c(C(=O)OC)c(-c2cccc(Cl)c2)n2c1CS(=O)(=O)C2
→ 0.22, 0.31
- COc1ccc(CC(CC(=O)O)C(=O)Nc2ccccc2)cc1 (centres undefined)
→ 0.89, 1.75
- COc1ccc(N(C(=O)c2ccco2)C(C(=O)NC2CCCC2)c2ccncc2)cc1 (centres undefined)
→ 0.59, -0.01
- O=S(=O)(c1ccc2oc3ccccc3c2c1)N1CCCC1
→ 0.68, 2.42
- Cc1cc2oc3ccc(NCCCN4CCOCC4)cc3c(=O)c2cc1C
→ 0.16, -0.28
- CCCCc1nc(SCCOC)c2c(=O)n(C)c(=O)n(C)c2n1
→ 2.04, 1.22

Back to the main list, repeating the 5 entries before the break.
The line under a structure holds: KCNQ2 enhance, KCNQ2 enhance baseline
- Cc1c(C)c2ccc(O[C@@H]3O[C@H](CO)[C@H](O)[C@H](O)[C@H]3O)cc2oc1=O
→ 0.07, -0.01
- Cc1cc(C)n2[nH]c(=O)c(N=Nc3cccc(Cl)c3)c2n1
→ 0.23, -2.8
- COC(=O)c1c(C(=O)OC)c(-c2cccc(Cl)c2)n2c1CS(=O)(=O)C2
→ 0.22, 0.31
- COc1ccc(N(C(=O)c2ccco2)C(C(=O)NC2CCCC2)c2ccncc2)cc1 (centres undefined)
→ 0.59, -0.01
- COc1ccc(/C=N/n2cnnc2)cc1COc1ccccn1
→ 0.33, -1.16
- O=C(NC(=S)N1CCc2ccccc21)c1ccccc1
→ 14.2*, 1.6*
- Cc1ccccc1NC(=S)N(Cc1cccnc1)Cc1ccco1
→ 0.22, -0.66
- COC(=O)c1cn(C(=O)c2cc(C)cc(C)c2)c2ccccc12
→ 1.25, -0.45
- CCNC(=O)Nc1ccc(OC)cc1OC
→ 0.38, 0.44
- CCOC(=O)/C=C/C(=O)Nc1ccccc1C(=O)NC1CCCCC1
→ 0.2, 1.9
- Cc1cc(Br)ccc1NC(=S)Nc1cccc([N+](=O)[O-])c1
→ 2.55, -1.26
- FC(F)(F)c1cccc(NC(=S)N2CCCC2)c1
→ 1.93, 1.18
- CCOc1ccc(NS(=O)(=O)c2ccc(C(=O)NCC(c3ccco3)N(C)C)cc2)cc1 (centres undefined)
→ 0.68, -1.76
- Cc1c(N)cccc1-c1nc2ccccc2[nH]1
→ 2.5, 0.02
- Cc1ccc(S(=O)(=O)N2CCN(C(=O)CSc3nnc(-c4ccco4)o3)CC2)cc1
→ 0.09, -0.1
- Cc1ccc(SCCNC(=S)Nc2ccc(C)cc2C)cc1
→ 7.03*, 2.07*
- COc1ccccc1NC(=O)CCN1C(=O)c2ccccc2C1=O
→ 0.89, 0.28
- Cc1ccc(S(=O)(=O)Nc2ccc(N(C)C)cc2)cc1
→ 0.94, 0.03
- CCSc1ccc(-c2cccc([N+](=O)[O-])c2)nn1
→ 0.41, -1.3
- COc1ccc(-c2nc3ccc([N+](=O)[O-])cc3[nH]2)cc1
→ 1.18, 1.18

Next compounds follow:
The line under a structure holds: KCNQ2 enhance, KCNQ2 enhance baseline
- COc1ccc(Cl)cc1NC(=O)c1cnc2n(c1=O)CCS2
→ 0.77, -2.67
- CCn1cc(C(=O)N[C@@H](C)C(=O)NCCO)c(=O)c2cc3c(cc21)OCO3
→ 1.23, 0.2
- OC(CNCc1cccc(Br)c1)c1ccccc1 (centres undefined)
→ 0.38, 0.27
- COC(CNC(=O)c1ccc2nc(-c3cccs3)c(-c3cccs3)nc2c1)OC
→ 0.05, 2.17
- CCOc1cc(CN2CCc3c([nH]c4ccccc34)C2)ccc1OC
→ 0.52, 1.3
- CCCC12CN3CC(CCC)(CN(C1)C3c1ccco1)C2=O (centres undefined)
→ 2.01, -0.12
- N#C/C(=C(/O)COC(=O)c1ccc(C#N)cc1)c1nc2ccccc2s1
→ 1.61, 0.04
- CC(OC(=O)CCCOc1ccccc1)C(=O)Nc1ccc(Cl)cn1 (centres undefined)
→ 0.1, 0.27
- O=C1CCCC2=C1Sc1ccc(Cl)cc1N2
→ 1.14, 0.36
- Cc1ccccc1NS(=O)(=O)c1ccc2[nH]cc(C(=O)NCCCN3CCOCC3)c(=O)c2c1
→ 1.68, -0.62
- COc1ccc(NC2=C(C(C)=O)C(c3ccc(N(C)C)cc3)C(C(C)=O)C(C)(O)C2)cc1 (centres undefined)
→ 1.22, 0.53
- C#CC(C)OC(=O)C(C)NC(=O)c1ccccc1 (centres undefined)
→ 0.01, 0.06
- Cc1ccc(-c2nc(CS(=O)CC(=O)NCCN3CCOCC3)c(C)o2)cc1 (centres undefined)
→ 0.8, -1.59
- Cc1ccnc2nc(C(=O)OCC(=O)NCCc3ccc(Cl)cc3)nn12
→ 1.81, -1.28
- Cc1ccc2cc(S(=O)(=O)NCCCN3CCOCC3)ccc2c1
→ 1.03, -0.26

6 entries out of the list, ordered by molar mass, lowest first.
The line under a structure holds: KCNQ2 enhance, KCNQ2 enhance baseline
- O=C1CCCC2=C1Sc1ccc(Cl)cc1N2
→ 1.14, 0.36
- CCCC12CN3CC(CCC)(CN(C1)C3c1ccco1)C2=O (centres undefined)
→ 2.01, -0.12
- COc1ccc(Cl)cc1NC(=O)c1cnc2n(c1=O)CCS2
→ 0.77, -2.67
- CCn1cc(C(=O)N[C@@H](C)C(=O)NCCO)c(=O)c2cc3c(cc21)OCO3
→ 1.23, 0.2
- COC(CNC(=O)c1ccc2nc(-c3cccs3)c(-c3cccs3)nc2c1)OC
→ 0.05, 2.17
- Cc1ccccc1NS(=O)(=O)c1ccc2[nH]cc(C(=O)NCCCN3CCOCC3)c(=O)c2c1
→ 1.68, -0.62

Going on with the list.
The line under a structure holds: KCNQ2 enhance, KCNQ2 enhance baseline
- COC(=O)c1cn(NC(=O)COc2ccc(Cl)cc2)c(=O)c2ccccc12
→ 0.01, 0.26
- COc1ccc(N=Nc2ccc3ccccc3c2)c(O)c1
→ 0.22, -0.01
- COc1ccc(NC(=O)c2ccc(-n3cccn3)nc2)cc1
→ 0.04, -0.09
- Cc1ccc(N2C(=O)CC(n3nc(C)cc3C)C2=O)cc1 (centres undefined)
→ 0.26, -0.53
- O=C(COc1ccc(/C=N/NC(=O)c2cc3ccccc3o2)cc1Br)Nc1ccccc1
→ 0.45, 0.27
- COc1cc(NS(=O)(=O)c2ccc(C)cc2C)cc(OC)c1OC
→ 2.15, -0.56
- O=C(O)c1ccc(N2C(=O)CSC2c2cccc([N+](=O)[O-])c2)cc1 (centres undefined)
→ 0.88, -2.02
- CS(=O)(=O)N1CCN(c2nc3ccccc3s2)CC1
→ 1.33, -0.85
- CCn1c(=O)c2c(nc3n2CCN3c2ccccc2)n(C)c1=O
→ 0.5, -0.75
- CC(C)OC(=O)CC1C(=O)NCCN1C(=S)NC(=O)c1cccs1 (centres undefined)
→ 0.04, -0.4
- Cc1ccc(S(=O)(=O)NCC(C)NS(=O)(=O)c2ccc(C)cc2)cc1 (centres undefined)
→ 0.08, -0.99
- N#CC1=C2C=CC=CN2CC1=O
→ 0.49, -0.61
- Cc1cccc2c1N(CC(=O)OC(C)C)C(=O)C2=O
→ 0.01, 0.51
- O=C(CCN1C(=O)/C(=C/c2cccs2)SC1=S)Nc1cccc(O)c1
→ 0.07, -1.32
- CCOc1ccc(CN(C)C(=O)CNC(=O)Cc2cccc3ccccc23)cc1
→ 0.11, 0.75

(cont.)
The line under a structure holds: KCNQ2 enhance, KCNQ2 enhance baseline
- CCn1c(O)c(N=NC(=O)CNc2ccc(C)cc2)c2ccccc21
→ 0.55, -0.69
- O=[N+]([O-])c1cccc(-n2nnnc2CN2CCCC2)c1
→ 0.2, -0.17
- Cc1cccc(OCC(=O)Nc2cc(Cl)ccc2-n2cncn2)c1C
→ 0.11, 0.01
- CC(NCC1COc2ccccc2O1)C(=O)NCc1ccccc1 (centres undefined)
→ 1.7, -0.74
- Cc1cccc2nc(-c3ccco3)c(Nc3ccc4c(c3)OCCO4)n12
→ 0.01, -0.27
- COC(=O)c1ccc(CNC(=O)C2CCC(=O)N(Cc3ccccn3)C2)cc1 (centres undefined)
→ 0.34, 1.07
- CCOc1cc(/C=C(\CC(=O)O)c2nc3ccccc3s2)ccc1OC
→ 0.09, -0.65
- CC1(C)CC2(CC(C)(C(=O)CSc3nc4ccccc4s3)OC2=O)C(=O)O1 (centres undefined)
→ 2.28, 1.83
- Cc1ccc(SCC(=O)NN2C(=O)c3ccccc3C2=O)cc1
→ 1.13, 0.07
- CN(/C=C/C(=O)C(F)(F)C(F)(F)F)Cc1ccccc1
→ 1.46, -0.05
- O=C(CSC1=NCCS1)N1CCc2ccccc21
→ 0.68, 0.39
- CC1Sc2ccc(S(=O)(=O)CCC(=O)NCc3ccc(Cl)cc3)cc2NC1=O (centres undefined)
→ 0.51, -0.18
- Cc1ccc(/C=C/C(=O)NCc2ccccn2)o1
→ 0.71, -1.8
- O=C(Cc1ccc(Br)cc1)NCCc1ccccc1
→ 0.95, 0.32
- O=C(CC1Nc2ccccc2NC1=O)NCc1cccnc1 (centres undefined)
→ 0.75, -0.78

(continued)
The line under a structure holds: KCNQ2 enhance, KCNQ2 enhance baseline
- Cc1cc(C)c2nc(-c3cccnc3)cc(C(=O)Nc3ccc(S(=O)(=O)Nc4onc(C)c4C)cc3)c2c1
→ 0.51, 0.43
- CCCN1CCN(C(=O)Cn2nc(CC)n3c(cc4sccc43)c2=O)CC1
→ 1.14, 0.71
- O=C(Nc1ccc(C(=O)O)cc1)/C(=C/c1ccc2c(c1)OCO2)NC(=O)c1cccc(Br)c1
→ 0.11, -0.71
- COc1cccc(C2=NOC(C(=O)N3CCN(C(=O)c4ccco4)CC3)C2)c1 (centres undefined)
→ 0.06, 0.41
- COc1ccc(/C=N/NC(=O)c2cc3c(ccc4ccccc43)o2)cc1OC
→ 0.7, -1.46
- COc1cc(C(=O)Nc2ccc3c(c2)nc(C)n3C)cc(OC)c1OC
→ 0.26, 2.42
